# GIRK2 act: activators of human GIRK2 potassium channels | AID 1259325, 2017 | calls only for hits at 25 µM | 63,000 compounds, 0.05% hits | HEK293-GIRK2 thallium flux, Thallos fluorescence | G protein-activated inward rectifier potassium channel 2 (Homo sapiens), P48051;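 active means among the strongest 0.2% of first-round signals and kept after retests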;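 further: first round at about 10 µM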
# Target sequence (P48051 whole entry, looked up): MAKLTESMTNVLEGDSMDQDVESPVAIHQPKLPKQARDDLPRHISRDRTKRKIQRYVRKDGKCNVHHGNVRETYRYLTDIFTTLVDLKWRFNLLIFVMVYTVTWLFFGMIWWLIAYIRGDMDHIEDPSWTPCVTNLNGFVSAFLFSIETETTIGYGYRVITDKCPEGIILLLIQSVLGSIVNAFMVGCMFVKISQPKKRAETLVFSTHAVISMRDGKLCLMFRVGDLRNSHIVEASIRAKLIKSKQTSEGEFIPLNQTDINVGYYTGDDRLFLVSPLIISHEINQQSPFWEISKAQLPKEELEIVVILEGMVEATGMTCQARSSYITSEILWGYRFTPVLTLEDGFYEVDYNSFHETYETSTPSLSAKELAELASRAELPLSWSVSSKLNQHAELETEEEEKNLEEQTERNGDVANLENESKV
# Calls only; i = inactive; + = active, no number. Only part of the results is shown; count on the stated rates, not on these rows.
SMILES,GIRK2 act
Cc1cccc(NC(=O)CN2CCN(Cc3nc(-c4ccccc4)cs3)CC2)c1C,i
COc1ccc(N2CC(C(=O)Nc3cc(-c4cccs4)nn3-c3nc(C)cc(=O)[nH]3)CC2=O)cc1 (stereo not given),i
Cn1cnnc1S(=O)(=O)C1CCN(C(=O)Cn2ncccc2=O)CC1,i
Cc1cc(C)cc(-n2cc(C(=O)N3CCC(NC(=O)c4ccccc4Cl)CC3)nn2)c1,i
Cc1ccc(CNC(=O)C(=O)NCC2CCN(Cc3cccs3)CC2)cc1,i
Cc1c(C(=O)N2CCOCC2)nnn1-c1ccc2noc(-c3ccc(Cl)cc3)c2c1,i
CC(=O)NC(C(=O)O[C@H]1CCC(C)(C)[C@@H]2CC=C3C(=O)OCC3(O)[C@@]12C)C(C)C (stereo not given in full),i
Cc1ccc(N2CCn3c2nn(CC(=O)Nc2cccc(C)c2C)c(=O)c3=O)cc1,i
COc1ccc(C(=O)Nc2ccc(OC(F)(F)F)cc2)nn1,i
O=C(c1cc2ccccc2o1)N1CCCSCC1CN1CCCC1 (stereo not given),i
O=C(CCc1nc2sc3c(c2c(=O)[nH]1)CCCCC3)N1CCN(c2ccc(Cl)cc2)CC1,i
COc1ccc(-c2nc(Cn3nnc(-c4nc(-c5ccc(SC)cc5)no4)c3C)c(C)o2)cc1,i
Cc1ccccc1NC(=O)NCC1CCN(C(C)C)CC1,i
O=C(NCCc1nc2c(c(C(F)(F)F)n1)CCCC2)c1ccc2c(c1)OCO2,i
Cc1cccc(Cn2c(-n3nc(C)cc3C)nc3c2c(=O)n(CC(N)=O)c(=O)n3C)c1,i
CC(C)(C)c1ccc(C(=O)N2CCC(COCc3ccc(F)cc3)CC2)cc1,i
CCCC(=O)N1CCN(Cc2nc(C)cs2)CC1,i
Cc1ccc2c(=O)c(C(=O)N3CCCC3)cn(CC(=O)Nc3cc(Cl)ccc3C)c2n1,i
CC(=O)OC(C)(C)/C=C/C(=O)[C@](C)(O)[C@H]1C(O)C[C@@]2(C)[C@@H]3CC=C4[C@@H](C=C(O[C@@H]5O[C@H](CO)[C@@H](O)[C@H](O)[C@H]5O)C(=O)C4(C)C)[C@]3(C)C(=O)C[C@]12C (stereo not given in full),i
COc1cc(/C=C2\SC(=S)N(c3ccc(C(=O)O)c(O)c3)C2=O)ccc1O,i
COc1ccccc1CNC(=O)CC1=NS(=O)(=O)c2ccccc2N1,i
CC(C)NCC(O)COc1ccc2ccccc2c1 (stereo not given),i
Cc1ccc2nc(CSc3nc4sc(C)cc4c(=O)n3C)[nH]c2c1,i
COc1ccc(COC2OC(COC(C)=O)C(OC(C)=O)C(OC(C)=O)C2NC(C)=O)cc1 (stereo not given),i
Cc1nc(C)c(C(=O)C2=C(O)C(=O)N(CCN(C)C)C2c2cccs2)s1 (stereo not given),i
# Additional records
SMILES,GIRK2 act
CC1CN(CC(O)COC23CC4CC(CC(C4)C2)C3)CC(C)O1 (stereo not given),i
COc1cc(NC(=O)Cc2ccccc2C)ncn1,i
COc1ccc(CCNS(=O)(=O)c2cn(C)c(=O)n(C)c2=O)cc1,i
CC(C)C(=O)N1CCCc2cc(NC(=O)Nc3cccc(Cl)c3)ccc21,i
Cc1ccc(-c2nc(CSc3nc4c(c(=O)[nH]3)CN(Cc3ccccc3)CC4)c(C)o2)cc1,i
COC(=O)c1sccc1S(=O)(=O)NCCn1nc(C(F)(F)F)n(C)c1=O,i
COc1ccc(NC(=O)c2coc(NC(=O)c3cc(C)on3)n2)cc1Cl,i
CC1CCN(C(=O)Cn2nc3c(-c4nc(-c5cccc(Cl)c5)no4)cccn3c2=O)CC1,i
CN(C)S(=O)(=O)c1ccc(NC(=O)CN2CCCCCC2)cc1,i
COc1ccc(-c2noc(-c3cccn(CC(=O)Nc4cccc(Cl)c4C)c3=O)n2)cc1OC,i
COc1ccc(N2CCCn3c2nc2c3c(=O)n(CC(=O)OCc3ccccc3)c(=O)n2C)cc1,i
COC(=O)c1ccc(S(=O)(=O)Nc2ccc(CC(=O)NC3CC3)cc2)cc1,i
Cc1csc(C(=O)N2CC(c3nc(-c4ccc[nH]c4=O)no3)C2)c1,i
COc1ccccc1CNC(=O)Cn1nc(C)ccc1=O,i
N#Cc1ccc(OC2CCN(S(=O)(=O)C3CC3)CC2)nc1,i
CC(C)CNC(=O)c1ccc2c(=O)n(Cc3ccccc3)c3nn(Cc4ccccc4F)c(=O)n3c2c1,i
COc1ccc(CNC(=O)c2nnn(Cc3ccccc3)c2N)cc1OC,i
CCCc1nc2ccccc2n1CCOc1ccccc1,i
Cc1nc2sc(C)c(C)n2c(=O)c1NC(=O)c1ccco1,i
O=c1cc(CN2CCN(c3ccccc3F)CC2)c2cc(Cl)ccc2o1,i
O=C(COc1ccc(F)cc1)NCCCS(=O)(=O)N1CCN(c2ncccn2)CC1,i
COC(=O)c1ccc2c(=O)n(CCC(=O)NCCN3CCCc4ccccc43)c(=S)[nH]c2c1,i
Cc1cc(NC(=O)C(=O)NN2CCN(C)CC2)no1,i
Cn1cccc(C(=O)NCC(C)(O)c2ccco2)c1=O (stereo not given),i
O=C(O)C1CCN(c2nc(-c3ccccc3)nc3c2oc2ccccc23)CC1,i

# Structural class, those above containing a COOH group (2)
SMILES,GIRK2 act
COc1cc(/C=C2\SC(=S)N(c3ccc(C(=O)O)c(O)c3)C2=O)ccc1O,i
O=C(O)C1CCN(c2nc(-c3ccccc3)nc3c2oc2ccccc23)CC1,i

# Later entries
SMILES,GIRK2 act
CCC1CCCCN1C(=O)COc1cccc2c1CCN(Cc1ccccc1)C2=O (stereo not given),i
CC(C)(C)C(O)CCNC(=O)C1CC1 (stereo not given),i
O=C(NCc1ccc2c(c1)OCO2)C1CCCN(c2ccc(-c3ccco3)nn2)C1 (stereo not given),i
COC(=O)c1ccc(S(=O)(=O)Nc2ccc(CC(=O)N3CCC(O)CC3)cc2)cc1,i
CCOC(=O)N1CCC(c2nnc(-c3ccco3)o2)CC1,i
COc1cccc(CNC(=O)C(=O)Nc2cc3c4c(c2)CCC(=O)N4CCC3)c1,i
Cc1noc(-c2ccc(N3CCC(NC(=O)Cc4ccccc4Br)C3)nc2)n1 (stereo not given),i
O=C(Nc1ccc(-c2ccn[nH]2)cc1)c1cc(=O)c2ccccc2o1,i
O=C(Cn1nc(-c2ccccc2)c2sc(N3CCCCC3)nc2c1=O)N1CCCc2ccccc21,i
CC1CCCN(C(=O)Cn2nc3c(-c4nc(-c5ccc(Cl)cc5)no4)cccn3c2=O)C1 (stereo not given),i
COc1ccc(S(=O)(=O)Nc2ccc3c(c2)N(S(=O)(=O)c2ccc(F)cc2)CCC3)cc1,i
CC(=O)Nc1ccc(C(=O)N2CCCC(c3nnc(-c4ccccc4F)s3)C2)cc1 (stereo not given),i
O=C(NCC1(c2cccs2)CCCCC1)C(=O)Nc1cccc(N2CCCC2=O)c1,i
O=C(c1cnc2ccccc2n1)N1CCCC(c2nnc(C(F)(F)F)o2)C1 (stereo not given),i
CCOc1ccc(-c2cc3c(=O)n(CC(=O)Nc4ccc(OC)c(Cl)c4)ccn3n2)cc1,i
CCN(CC)C(=O)c1cnc2ccc(F)cc2c1S(=O)(=O)c1cc(C)cc(C)c1,i
CCc1ccc(N2C(=O)N(CC(=O)N3CCC(C)CC3)c3ccccc3S2(=O)=O)cc1,i
O=C(NCc1cccnc1)c1ccc2c(=O)n(-c3cccc(C(F)(F)F)c3)c(=S)[nH]c2c1,i
Fc1ccc(C2CCNCC2COc2ccc3c(c2)OCO3)cc1 (stereo not given),i
CC(=O)Nc1ccc(NC(=O)c2ccc(-c3ccc(Cl)cc3)o2)cc1,i
O=C(Nc1nc2c(s1)CN(C(=O)Nc1ccccc1C(F)(F)F)CC2)c1ccoc1,i
CS(=O)(=O)NCCNC(=O)c1ccc(NC(=O)C2CCCC2)cc1,i
COc1ccc(-n2nnc(C(=O)NCc3ccccc3)c2C(C)C)cc1,i
COc1ccc(CCS(=O)(=O)NCCC(O)C2CC2)cc1 (stereo not given),i
Cc1cccc(-n2c(C)cn3c4c(=O)n(CC(=O)C(C)(C)C)c(=O)n(C)c4nc23)c1C,i
# (further entries)
SMILES,GIRK2 act
N=c1c(S(=O)(=O)c2ccc(Cl)cc2)cc2c(=O)n3ccccc3nc2n1CCO,i
COc1ccc(/C=C/c2nc(C#N)c(N3CCN(C(=O)c4ccccc4Cl)CC3)o2)cc1,i
Cc1cc(C)n(-c2nc3c(c(=O)n(CCN4CCOCC4)c(=O)n3C)n2C)n1,i
O=C(NCCn1ccc(C(F)(F)F)n1)C1(c2ccccc2)CCOCC1,i
COc1cccc(C(=O)Nc2ccc3nc(C)n(-c4ccc(Cl)cc4)c(=O)c3c2)c1OC,i
O=C(Nc1nnc(-c2ccsc2)o1)c1cc(-c2ccccc2)on1,i
CC(=O)N1N=C(c2ccc(Cl)cc2)CC1c1cn(-c2ccccc2)nc1C (stereo not given),i
O=C(Nc1ccc(-c2cnc3n2CCC3)cc1)c1ccc(Cl)s1,i
COc1ccc(C)cc1NC(=O)Cn1c(=O)n(Cc2nc(C)no2)c(=O)c2ccccc21,i
O=C(CSc1nnc(N2CCN(C(=O)c3cccc4ccccc34)CC2)s1)NCc1ccco1,i
CCc1c(C)nc2sc3c(N)ncnc3c2c1C,i
C=CCn1c(=O)c2ccccc2n(Cc2nc(-c3ccccc3C)no2)c1=O,i
NC(=O)COc1ccc2c(=O)c(-c3ccc(Cl)cc3)c(C(F)(F)F)oc2c1,+
Cc1[nH]c2ccccc2c1C(=O)CSc1nnc(-c2ccccc2)o1,i
CCCCCNS(=O)(=O)c1cc2c3c(c1)CCC(=O)N3CCC2,i
COc1ccccc1C1c2c(oc3ccccc3c2=O)C(=O)N1C (stereo not given),i
O=C(Nc1c[nH]c2ccccc12)N1CCN(c2cccc(C(F)(F)F)c2)CC1,i
O=C(NCCS(=O)(=O)N1CCC(Cc2ccccc2)CC1)c1ccc2c(c1)OCO2,i
COc1ccc(CNC(=O)Nc2ccc3c(c2)CCCN3S(=O)(=O)c2ccccc2)cc1OC,i
Cc1ccc(N2CC(C)Cn3c2nc2c3c(=O)n(CC(N)=O)c(=O)n2C)cc1C (stereo not given),i
COc1cc(NC(=O)Cn2c3ccc(Cl)cc3c(=O)n2C(C)(C)C)cc(OC)c1,i
COc1ccccc1NC(=O)Cn1c(=O)nc(-c2ccccc2F)c2cc(Cl)ccc21,i
COc1cc(C(=O)NCCN2CCN(S(=O)(=O)c3ccc(C)cc3)CC2)cc(OC)c1OC,i
CCOC(=O)C1=C(C)N=c2s/c(=C/c3c(C)nn(C)c3C)c(=O)n2C1c1ccccc1 (stereo not given),+
O=C(NC1CC(=O)N(C2CC2)C1)c1cc(C(F)(F)F)cc(C(F)(F)F)c1 (stereo not given),i

# Three compounds out of the list, sorted by heavy-atom count, smallest number first:
SMILES,GIRK2 act
Cc1[nH]c2ccccc2c1C(=O)CSc1nnc(-c2ccccc2)o1,i
O=C(Nc1c[nH]c2ccccc12)N1CCN(c2cccc(C(F)(F)F)c2)CC1,i
COc1cc(NC(=O)Cn2c3ccc(Cl)cc3c(=O)n2C(C)(C)C)cc(OC)c1,i

# The listing picks up, starting six compounds before the break.
SMILES,GIRK2 act
Cc1ccc(N2CC(C)Cn3c2nc2c3c(=O)n(CC(N)=O)c(=O)n2C)cc1C (stereo not given),i
COc1cc(NC(=O)Cn2c3ccc(Cl)cc3c(=O)n2C(C)(C)C)cc(OC)c1,i
COc1ccccc1NC(=O)Cn1c(=O)nc(-c2ccccc2F)c2cc(Cl)ccc21,i
COc1cc(C(=O)NCCN2CCN(S(=O)(=O)c3ccc(C)cc3)CC2)cc(OC)c1OC,i
CCOC(=O)C1=C(C)N=c2s/c(=C/c3c(C)nn(C)c3C)c(=O)n2C1c1ccccc1 (stereo not given),+
O=C(NC1CC(=O)N(C2CC2)C1)c1cc(C(F)(F)F)cc(C(F)(F)F)c1 (stereo not given),i
COc1ccc(NC(=O)C(=O)NCCN2CCN(c3ccccc3F)CC2)cc1OC,i
N#Cc1c(N)nc2c(c1-c1ccccc1Cl)CN(Cc1ccccc1)CC2,i
COc1ccc(CC(=O)Nc2cnc(N(C)C)nc2)cc1,i
CC(C)N1CCc2c(sc(NC(=O)c3ccnn3C)c2-c2nc3ccccc3s2)C1,i
Cc1cc(C)cc(-n2cc(C(=O)N3CCC(NC(=O)c4ccc(C)c(C)c4)CC3)nn2)c1,i
O=C(NCCCS(=O)(=O)N1CCN(c2ccccn2)CC1)c1cccs1,i
CC(C)Sc1ccc(CC(=O)NCC#CCN(C)C)cc1,i
O=C(c1ccc(F)cc1Cl)N1CCC(Oc2nc3c(F)cccc3s2)CC1,i
CCCCCC/C=C\CCCCCCCCCCOC(C)=O,i
CC/C=C\C/C=C\C/C=C\C/C=C\CCCCCC(=O)NCCO,i
Cc1nn(C2CCS(=O)(=O)C2)c(C)c1N1CCN(C(=O)c2cc(C3CC3)on2)CC1 (stereo not given),i
CCOc1ccc(NC(=O)CSc2nnc3ccc4ccccc4n23)cc1,i
COc1cc(/C(Cc2nc3ccccc3[nH]2)=N/Nc2ccccc2)cc(OC)c1OC,i
Cc1noc(Cn2cccc(-c3nc(C)no3)c2=O)n1,i
CCOc1ccc(C(=O)Nc2ccc(-n3c(C)nc4ccccc4c3=O)cc2)cc1OCC,i
C=CCN1CC(c2nc3ccccc3n2CCCCOc2ccccc2)CC1=O (stereo not given),i
COc1ccccc1-n1nnc(C(=O)NCC2COCCO2)c1-c1ccccn1 (stereo not given),i
COc1ccc(-c2nn3ncccc3c2-c2ccnc(Nc3ccc(F)c(F)c3)n2)cc1,i
O=C(NCc1ccco1)c1n[nH]n2c1nc(=O)c1cc(Cl)ccc12,i
CCCn1c(C(=O)NCC2CCCO2)cc2c(=O)n(C)c(=O)n(C)c21 (stereo not given),i
O=C(c1cccc2ccccc12)N1CCC(Oc2ncccc2Br)CC1,i

# Screening data: PubChem, Vanderbilt University
